Source: PubChem
MgcRacGAP Rac1 – MgcRacGAP inhibitors via phosphate release, confirmation, orthogonal assay, biochemical, inorganic phosphate detection, Rac1 (AID 652142); Rac GTPase-activating protein 1 (Homo sapiens); MgcRacGAP/Rac1F28L GTP hydrolysis, Biomol green phosphate; stronger effect = higher value; test concentration not given here; none was called active though about 1 in 100 pass the limit; inhibition, %; 2,400 tested, under 10 active;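 active = inhibition over three standard deviations or about 65%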;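 note: full inhibition control lacks the GAP enzyme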
The depositor's hits bear a star; & = joins results of further samples. The list is partial, so the mix of outcomes need not match the whole.

| MgcRacGAP Rac1 | smiles |
| --- | --- |
| 7 | COc1ccc(NC2CCCN(C(=O)c3ccc(C)nc3)C2)cc1 (centres undefined) |
| 36 | Cc1cc(C)c2c(c1)NC(C(=O)O)C1CC=CC21 (centres undefined) |
| 12 | Cc1ccc(O)c(N=Cc2cc(Cc3ccccc3)cc([N+](=O)[O-])c2O)c1 |
| 21 | CCC(C)N1CCN(C(=O)c2cccs2)CC1 (centres undefined) |
| 10 | Cc1ccc(NC(=O)CCC(=O)N/N=C/c2ccc(O)cc2)cc1 |
| 20 | OCCN(CCO)c1ccc2ccccc2c1 |
| 18 | COc1ccc(C)cc1NCc1ccc(OC)c(C)c1OC |
| 24 | Cc1ccnc(Nc2nc(-c3ccc(O)c(O)c3)cs2)c1 |
| 29 | COc1ccc(CNc2ncc(-c3ccccc3)n2C)c(OC)c1OC |
| 16 | O=C(CNC(=O)C1COc2ccccc2O1)N/N=C/c1ccc(O)cc1O (centres undefined) |
| 32 | CC[n+]1ccc(/C=C/c2ccc(N(C)C)cc2)c2ccccc21 |
| 19 | CN(C)c1ccc2c(c1)C(=NO)c1ccccc1-2 |
| 23 | COc1cc(/C(C)=N/N2CCN(Cc3ccc(C)cc3)CC2)ccc1O |
| 23&27 | Cc1cc2nc(/N=C(\N)NC(=O)N3c4ccccc4Sc4ccccc43)nc(C)c2cc1C |
| 24 | COCCNCCOCCOc1ccc(Cl)c(C)c1 |
| 27 | Cn1cccc1/C=N/N1CCN(c2ccccn2)CC1 |
| 17 | COc1ccc(Oc2cn[nH]c2-c2ccc(O)cc2O)cc1 |
| 29 | Cc1cc(OCCCCCN2CCCC2)ccc1Cl |
| 25 | COc1ccc(N2CCN(CC(=O)N3c4ccccc4CC3C)CC2)cc1 (centres undefined) |
| 26 | Cn1c(=O)c2c([nH]c(=S)n2CCCc2ccccc2)n(C)c1=O |
| 29 | CCn1nc(NS(=O)(=O)c2ccccc2[N+](=O)[O-])c2cc3ccc(C)cc3nc21 |
| 56 | Cc1ccc(/C=C/C(=O)Nc2ccc([N+](=O)[O-])c(NC(=O)/C=C/c3ccc(C)o3)c2)o1 |
| 27 | CCOc1cc(/C=C2/N=C(C)C(C(=O)OC)=C2O)ccc1O |
| 17 | O=C(c1cccc(F)c1)N1CCN(Cc2cccc(Br)c2)CC1 |
| 13 | CCN1CCN(CCOc2cccc(Oc3ccccc3)c2)CC1 |
| 34 | Cc1cc(=O)[nH]c2c(N=Nc3ccc(O)cc3)c(N)nn12 |
| 10 | COC(=O)c1cc(NCc2cccs2)ccc1N1CCOCC1 |
| 27 | Oc1ccc(-c2[nH]ncc2-c2ccc(Cl)cc2)c(O)c1 |
| 26 | C#CCOc1ccccc1CNC1CCN(Cc2ccccc2)CC1 |
| 8 | COc1ccc2[nH]c3c(=O)n(Cc4ccc(C(=O)N5CCC(C(N)=O)CC5)cc4)c(=S)[nH]c3c2c1 |
| 33 | CCN(CC)c1ccc(NC(=O)Nc2ccccc2)cc1 |
| 21 | COc1cccc2cc(C(=O)Oc3ccc(NC(C)=O)cc3)c(=O)oc12 |
| 30 | CN=c1scc(C)n1/N=C/c1cc(Br)c(O)c(OC)c1 |
| 13 | S=c1[nH]nc(-c2ccncc2)n1/N=C/C=C/c1ccccc1 |
| 21 | N#C/C(=C/c1ccc2c(c1)OCO2)C(=O)Nc1ccc(O)cc1 |
| 21 | Oc1ccc(/C=N/Nc2ncc(Cl)cc2Cl)cc1 |
| 16 | CN(C)S(=O)(=O)c1cc(NC(=O)CNCCN2CCOCC2)ccc1Cl |
| 38 | O=C(CSc1cn[nH]n1)Nc1cccc(C(=O)O)c1 |
| 7 | CCOC(=O)c1[nH]c2ccccc2c1NC(=S)Nc1cc(C)ccc1C |
| 25 | Cc1cc(=O)[nH]c(N/N=C/c2ccc(O)c(O)c2)n1 |
| 26 | CC1=CC(c2ccccc2)NC(=S)N1 (centres undefined) |
| 23 | CC(C)COc1ccc(N)cc1OCC(C)C |
| 25 | O=C1C2C3C=CC(CC3)C2C(=O)N1/N=C/c1ccc(O)c(O)c1 (centres undefined) |
| 28 | Cc1cnc(NC(=O)C(C)N2CCN(C)CC2)s1 (centres undefined) |
| 28 | Cc1cc(Cl)cc(C)c1OCCOCCNCc1ccccc1 |
| 22 | COCCCNCCCCOc1c(Cl)cc(C)cc1Br |
| 27 | O=C(CCn1cnc2ccccc21)N/N=C/c1ccc(O)cc1 |
| 23 | S=C(c1ccccc1)N1CCN(c2ccccc2)CC1 |
| 33 | O=C(N/N=C/c1ccc(O)cc1)Nc1cccc2nsnc12 |
| 32 | CN(c1ccc(O)cc1)c1nc(-c2cccs2)cs1 |
| 3 | C=CCn1c(SCC(C)=O)nnc1-c1cc(-c2ccccc2)sc1N |
| 23 | CCC1(c2ccccc2)NC(=O)N(CC(=O)Nc2ccc(N3CCCC3)cc2C)C1=O (centres undefined) |
| 10 | CC(C)Cn1c(-c2ccc(Br)o2)n[nH]c1=S |
| 25 | O=C1CC(Nc2ccc(N3CCOCC3)cc2)C(=O)N1Cc1ccccc1 (centres undefined) |
| 28 | CCN(c1ccccc1)S(=O)(=O)c1ccc(N2CCN(c3ccc(O)cc3)CC2)nc1 |
| 20 | Cc1nc(N)sc1-c1ccccc1 |

The listing continues:
| MgcRacGAP Rac1 | smiles |
| --- | --- |
| 60 | CN(C)C=Nc1ccc2nc3c(cc2c1)[nH]c1ccccc13 |
| 24 | c1ccc(CN2CCN(CCOCCOc3ccc4c(c3)CCC4)CC2)cc1 |
| 21 | COc1cc(CN(C)CCc2ccccn2)cc(OC)c1OC |
| 7 | CSc1ccc(CN2CCC(N3CC(C)OC(C)C3)CC2)cc1 (centres undefined) |
| 21 | CCOc1cc(/C=C2\C(=O)N(CCc3ccc(OC)c(OC)c3)C(C)=C2C(=O)OC)ccc1O |
| 1 | COc1ccc(N2CCC(CNC(=O)Nc3ccc(C)c(C)c3)C2)cc1 (centres undefined) |
| 21 | Cc1nnc2ccc(Oc3ccc(-c4ccccc4)cc3)nn12 |
| 22 | CN=Cc1cc(-c2ccccc2)sc1O |
| 28 | C=CCc1cc(Cl)ccc1OCCn1ccnc1 |
| 35 | COc1ccccc1CN1CCN(Cc2cc(OC)c(OC)cc2OC)CC1 |
| 21 | COc1cc(/C=N/NC(=O)CCn2c3ccccc3c3ccccc32)ccc1O |
| 12 | CCOc1cc(/C=N/NC(=O)C(C)Sc2ccccn2)ccc1O (centres undefined) |
| 39 | CN(C)/C=C1/C=C(c2ccccc2)OC1=O |
| 26 | CC1(C)OC(C)(C)/C(=C/Nc2ccc(O)cc2)C1=O |
| 25 | COc1ccc(NC(=S)Nc2cccc3ccccc23)cc1OC |
| 13 | O=C(CN1CCN(C2CCCCC2)CC1)Nc1ccccc1-c1ccccc1 |
| 31 | Cc1ccccc1OCCn1c(=S)[nH]c2c(N)ncnc21 |
| 26 | COc1cc(/C=N/Nc2nn3cnnc3c3ccccc23)ccc1O |
| 0 | c1ccc(-c2ccccc2OCCCCn2ccnc2)cc1 |
| 40 | CCOc1cc(/C=N/Nc2nc(=O)[nH]nc2C)ccc1O |
| 32 | CN(C)CCCn1c(SCc2ccc(Cl)cc2)nnc1-c1ccncc1 |
| 22 | COc1ccc(CN(C)CCc2ccccn2)c(OC)c1OC |
| 8 | Cc1ccc(SCCN2CCN(Cc3ccccc3)CC2)cc1 |
| 27 | O=c1c(-c2ccccc2Cl)c[nH]n1-c1ccccc1 |
| 34 | Cc1cccc(-c2n[nH]c(=S)n2/N=C/c2ccco2)c1 |
| 25 | C/C(=C\C(=O)c1ccccc1)Nc1ccc(O)cc1 |
| 30 | COc1ccc(/C=N/NC(=O)c2ccc(CSc3nc(C)cc(C)n3)cc2)cc1O |
| 25 | O=C(O)c1ccccc1C(=O)Nc1ccc(Nc2ccccc2)cc1 |
| 39 | COc1cccc2c3cccc(OC)c3c3[nH]cnc3c12 |
| 40 | COc1ccc(CN2CCCC(C(=O)N3CCCC3)C2)cc1 (centres undefined) |
| 15 | Cc1cc(O)c(C)c(O)c1/C=N/NC(=O)c1cccnc1 |
| 14 | Cc1cc(O)ccc1N=Cc1c(C(F)(F)F)[nH][nH]c1=O |
| 22 | Nc1nn2c(-c3ccccc3)cc(=O)[nH]c2c1N=Nc1ccc(O)cc1 |
| 28 | CNc1nnc(-c2ccc(N(C)C)cc2)s1 |
| 30 | COc1cc(/C=C2\SC(=S)N(NC(=O)c3ccncc3)C2=O)ccc1O |
| 26 | CCC(c1nnnn1Cc1ccccc1)N1CCN(c2ccc(OC)cc2)CC1 (centres undefined) |
| -3 | COc1cc(/C=N/NC(=O)CN(Cc2ccccc2)S(=O)(=O)c2ccc3c(c2)OCCO3)ccc1O |
| 23 | CN(c1ccc(O)cc1)c1nc(-c2ccccc2)cs1 |
| 12 | CCOC(=O)c1c(C)n(-c2ccc(C)cc2)c2ccc(OCC(O)CNCC3CCCO3)cc12 (centres undefined) |
| 43 | N#CC1=C(Nc2ccccc2Cl)SC(c2ccccc2O)NC1=O (centres undefined) |
| 17 | CCOc1cc(/C=C2\SC(=O)N=C2N)ccc1O |
| 22 | Cc1ccc(C(C)C)c(OCCCCN2CCNCC2)c1 |
| 25 | CCOc1cc(/C=N/NC(=O)c2cc(C3CC3)[nH]n2)ccc1O |
| 29 | COc1cc(CNc2ccc(N3CCN(C(C)=O)CC3)cc2)ccc1OCc1ccccc1 |
| 31 | CCOc1ccc(CNC2CCCc3ccccc32)cc1 (centres undefined) |
| 19 | COc1cc(/C=C/C(=O)OCC(=O)Nc2ccc3c(c2)OCO3)ccc1O |
| -30 | COc1ccc(C(=O)CCNc2ccc3c(c2)OCCO3)cc1 |
| 6 | CC(=O)CC(=O)Nc1ccc(Nc2ccccc2)cc1 |
| 21 | Nc1c(Cl)ncnc1N/N=C/c1ccc(O)cc1 |
| 35 | OCCCCNc1cccc2ccccc12 |
| 31 | CCc1ccc(CNc2ccc(N3CCN(C(C)=O)CC3)cc2)cc1 |
| 21 | COc1ccc(N2CCN(C(C)C(=O)N3CCCC3)CC2)cc1 (centres undefined) |
| 16 | Cc1ccc(N2C(N)=C(C#N)C3(C(=O)N(C)c4ccccc43)C3=C2CC(C)(C)CC3=O)cc1Cl (centres undefined) |
| 26 | COc1ccc([C@H]2CN(c3ccc(OC)cc3)C(=O)[C@@H]2CC(=O)Nc2ccccc2)cc1 |
| 4 | Cc1ccc(OC(=S)Nc2ccc(O)cc2)cc1 |
| 33 | N#CC1=C(S)N(c2ccccc2)C(c2ccc(-c3ccccc3Cl)o2)NC1=O (centres undefined) |

Next part
| MgcRacGAP Rac1 | smiles |
| --- | --- |
| 22 | Cc1cccc(Nc2c(-c3ccc(O)cc3)nc3ncccn23)c1 |
| 16 | CCn1c(/C=C/c2ccc(O)cc2)nc2ccccc2c1=O |
| 65 | CCN(CC)CCOc1ccc2c(c1)C(=NNC(=O)c1ccccn1)c1cc(OCCN(CC)CC)ccc1-2 |
| 37 | O=C(Nc1ccccc1)C1=C(c2ccccc2)S(=O)(=O)CCS1(=O)=O |
| 21 | CC/C(=N\O)c1ccc(O)c(OC)c1 |
| 23 | O=C1NC(=S)S/C1=C\c1cc(Cl)cc(Cl)c1O |
| 28 | C=CCc1cc(C=Nc2ccc(N3CCOCC3)cc2)cc(OCC)c1O |
| 21 | CCn1nc(CC(C)C)cc1C(=O)N1CCCC(Nc2ccc(OC)cc2)C1 (centres undefined) |
| 18 | CCOC(=O)c1[nH]c2ccccc2c1NC(=S)Nc1cccc(C)c1C |
| 20 | CN1CC(=O)N(CC(=O)Nc2ccc(N(C)C)cc2)c2ccccc2C1=O |
| 22 | Cc1ccc(-c2csc3n[nH]c(=S)n23)cc1 |
| 30 | CN1CCN(/N=C/c2nc(-c3ccccc3)n3ccccc23)CC1 |
| 15 | CCc1ccc(NC(=O)CNCc2ccc(OC)c(OC)c2)cc1 |
| 33 | COC(=O)c1[nH]c2ccccc2c1NC(=O)Oc1ccccc1 |
| 15 | CCOC(=O)CSC1=NC(=O)/C(=C\c2ccc(OC(C)=O)cc2)S1 |
| 19 | Cc1c(N=C2C=C(Br)C(=O)C(Br)=C2)c(=O)n(-c2ccccc2)n1C |
| 28 | COc1cc(/C=C/C(=O)c2ccc3c(c2)OCO3)cc(Cl)c1O |
| 26 | Nc1c(/C=C2/C=CC(=O)C(O)=C2)c(=O)nc2sc(CC(=O)N3CCOCC3)nn12 |
| 36 | COc1ccc(NCCC#N)cc1 |
| 36 | CC1=NN(c2ccc(C(=O)O)cc2)C(=O)/C1=C\c1ccc(OC(=O)c2cccs2)cc1 |
| 65 | Cc1cc2[nH]c3c(c[n+](C)c4ccccc34)c2cc1C |
| 44 | COc1cc(C(=S)NCc2ccccc2)cc(Br)c1O |
| 8 | Oc1ccc(-c2nccs2)cc1 |
| 36 | CCCCCCCCCCCCCCCC(O)C[N+](C)(C)CCO (centres undefined) |
| 12 | COc1ccc(N2CCN(CC(=O)Nc3cccc(S(=O)(=O)N4CCOCC4)c3)CC2)cc1 |
| 26 | CCN(CC)c1ccc(S(=O)(=O)N2CCOCC2)cc1NC(=O)CN1CCN(Cc2ccccc2)CC1 |
| 29 | CCc1c(C)nc(N2CCN(c3ccc(OC)cc3)CC2)[nH]c1=O |
| 29 | O=[N+]([O-])c1ccc(C2CC(c3ccccc3)=Nc3ccccc3S2)cc1 (centres undefined) |
| 43 | CC1CCC/C(=C\c2ccc(O)cc2)C1=O (centres undefined) |
| 14 | COc1cc(CNc2ccc3[nH]c(=O)[nH]c3c2)ccc1OCc1ccccc1 |
| 9 | COc1ccc(NC2CCCN(C(=O)c3cccc(N(C)C)c3)C2)cc1 (centres undefined) |
| 34 | CCOc1ccccc1N1CCN(C/C=C/c2ccc(N(C)C)cc2)CC1 |
| 7 | C/C(=N\NC(=O)CSc1nc2ccccc2o1)c1ccc(O)cc1 |
